TRPML1 blocker = qHTS for Inhibitors of the Human Mucolipin Transient Receptor Potential 1 (TRPML1) | Mucolipin-1 (Homo sapiens), Q9GZU1 | TRPML1-inducible cells, Ca2+ dye fluorescence, FDSS; active compounds read low; inhibition of EC80 agonist-evoked calcium signal | activity change, negative = inhibition, % (no concentration beside the values) | 0.02% of 390,000 active | AID 624415, 2012; in the data active means activity change below about -50%; inconclusive means about -30% to -50%; inactive means above about -30%;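 also: stimulus is agonist 54-4 at its EC80 concentration; % is scaled to controls: 0 for no effect and ±100 for the full control effect; compound concentration not given in the record; the text of the record puts the active cut at -80%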
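Calcium fluorescence in TRPML1-DL cells induced overnight with Tet: a 110 s read after compound pin addition, then a 110 s antagonist read after challenge with 54-4 at 4 uM final (EC80).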
ClpP mod = qHTS Assay for Activators of ClpP. ATP-dependent Clp protease proteolytic subunit (Bacillus subtilis (strain 168)), P80244. purified B. subtilis ClpP, FRET peptide cleavage, 20 min. Potency, µM (top dose mostly 57.5 µM), inactives show top-dose activity change, negative = active. 1.9% of 340,000 active. AID 651965, 2013; active = well fitted falling curve with a large enough effect; inconclusive = small, poorly fitted or top-dose-only effect; inactive = no such curve, though single readings can be large or run the other way; also: potency is read from the fitted curve at half-maximal effect; the source files actives as falling curves though it sought activators and does not explain the sign; nearly all actives have a fitted effect of over 65% in size; many hits overshoot -100%
Target sequence (P80244 whole entry, looked up): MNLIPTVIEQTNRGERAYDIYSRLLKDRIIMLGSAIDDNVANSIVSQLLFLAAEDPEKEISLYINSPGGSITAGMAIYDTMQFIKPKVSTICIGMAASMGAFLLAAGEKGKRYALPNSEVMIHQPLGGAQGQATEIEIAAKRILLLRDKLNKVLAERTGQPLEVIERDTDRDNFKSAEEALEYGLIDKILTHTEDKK
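FRET quenching reversal measured ClpP activation: 10 microg/mL B. subtilis ClpP at pH 8 with the FRET-FV decapeptide, read at 430 nm after 320 nm excitation. The 20-min minus 0-min signal was scaled between DMSO/no-enzyme wells and ADEP (5.8 microM final).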
PINK1 modulator = A Quantitative High throughput Screen to Identify Chemical Modulators of PINK1 Expression. Potency, µM (top dose mostly 76.6 µM), without a hit: at the top dose activation (PINK1 increase), actives largely listed as activators. 0.2% of 410,000 active. PINK1 immunofluorescence, high-content cytometry, 24 h; active = well fitted activation curve with a large enough effect; inconclusive = small, poorly fitted or top-dose-only effect; inactive = flat fitted curve, though single readings scatter; cell line not stated here;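 also: potency is read from the fitted curve at half-maximal effect; % of control where 0% means no effect; nearly all actives have a fitted effect of over 65% in size; a mitochondrial uncoupler was the plate control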
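Cells are seeded, rested 12 hours, then given compound at five concentrations or DMSO for 24 hours. After fixation, blocking and antibody staining, PINK1 amount and mitochondrial localization are scored; CCCP serves as control.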
Sfp inh = qHTS Assay for Inhibitors of Bacillus subtilis Sfp phosphopantetheinyl transferase (PPTase); 3.5% of 310,000 active; Potency, µM, for inactives: max response, negative = inhibition, actives largely listed as inhibitors; Biochemical Sfp PPTase activity, qHTS; AID 1490, 2009; 4'-phosphopantetheinyl transferase ffp (Bacillus subtilis), Q9F4F7; active = well fitted inhibition curve with a large enough effect; inconclusive = small, poorly fitted or top-dose-only effect, or another doubt; inactive = no such curve, though single readings can be large or run the other way;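 also: the enzyme is Sfp with the accession as filed and its product quenches rhodamine fluorescence; potency is read from the fitted curve at half-maximal effect; 0% = enzyme reaction without inhibitor and -100% = no enzyme wells; top concentration of the series not given in the record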
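With Hepes-Na pH 7.6 buffer containing 10 mM MgCl2, Sfp (15 nM) modified BHQ-2-YbbR (12.5 uM) using rhodamine-CoA (5 uM). Two reads 30 minutes apart at 525/598 nm yielded each well's rate.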
Menin MLL FP FL = qHTS Assay for Inhibitors Targeting the Menin-MLL Interaction in MLL Related Leukemias: Competition With Fluorescein Labeled MLL-derived Peptide | 290,000 tested, under 10 active | FP activity change, % at 61.4 µM | Fluorescence polarization, fluorescein-MLL peptide displacement from menin; inconclusive = falling polarisation curve, or a change in total fluorescence; inactive = total fluorescence flat and polarisation flat or rising; no compound was filed as active; the % refers to the polarisation; negative = inhibition;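 also: % of control where 0% means no effect; inhibitors lower the polarisation; unlabelled MLL peptide was the positive control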
TRPV1 PAM = HTS Assay for Compounds that Act as Potentiators of the Vanilloid Receptor 1; TRPV1-expressing cells, Fluo-8 calcium influx, capsaicin EC20 potentiation; host cell line not named in the record; control for the full effect not named in the record; potentiation, % at 8.33 µM; 0.02% of 320,000 active; active means potentiation above 80%; inconclusive means 30% to 80%; inactive means below 30%; also: 0% is about no effect
Target sequence (Q8NER1 whole entry, looked up): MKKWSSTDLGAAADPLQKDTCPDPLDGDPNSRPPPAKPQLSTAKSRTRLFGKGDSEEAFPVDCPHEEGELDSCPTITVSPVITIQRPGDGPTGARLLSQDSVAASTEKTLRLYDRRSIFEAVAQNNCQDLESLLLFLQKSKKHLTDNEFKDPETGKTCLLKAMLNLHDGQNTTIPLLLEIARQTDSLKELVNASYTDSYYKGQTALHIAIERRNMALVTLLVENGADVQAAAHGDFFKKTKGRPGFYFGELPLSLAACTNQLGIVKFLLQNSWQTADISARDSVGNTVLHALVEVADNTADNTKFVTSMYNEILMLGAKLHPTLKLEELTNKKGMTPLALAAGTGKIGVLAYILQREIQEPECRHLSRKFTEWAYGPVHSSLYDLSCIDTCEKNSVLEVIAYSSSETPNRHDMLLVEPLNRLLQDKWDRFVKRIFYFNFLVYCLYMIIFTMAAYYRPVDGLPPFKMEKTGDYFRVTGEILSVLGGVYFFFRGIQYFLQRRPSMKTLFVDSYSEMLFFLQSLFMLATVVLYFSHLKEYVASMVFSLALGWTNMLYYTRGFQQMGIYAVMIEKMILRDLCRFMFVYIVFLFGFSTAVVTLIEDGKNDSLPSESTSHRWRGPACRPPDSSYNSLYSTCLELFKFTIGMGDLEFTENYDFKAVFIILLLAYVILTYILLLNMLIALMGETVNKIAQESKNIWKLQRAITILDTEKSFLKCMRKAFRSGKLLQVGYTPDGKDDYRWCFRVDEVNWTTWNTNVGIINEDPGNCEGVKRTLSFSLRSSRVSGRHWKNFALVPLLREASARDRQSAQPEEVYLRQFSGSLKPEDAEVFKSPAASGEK
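TRPV1-expressing cells were cultured overnight at 35.5C and loaded with Fluo-8 calcium dye for 40 to 90 min at room temperature. After a 10 s baseline, compound was added and calcium influx was read kinetically for 3 min (ex 480/em 520 nm).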
TRPML1 ag = qHTS for Agonists of the Human Mucolipin Transient Receptor Potential 1 (TRPML1); TRPML1-expressing cells, Ca2+ dye fluorescence, FDSS; host cell line not named in the record; reference of the full effect not given here; activation, % (test concentration not listed); 0.12% of 410,000 active; AID 624414, 2012; in the data active = activation above about 50%; inconclusive = about 30% to 50%; inactive = below about 30%; also: 0% is about no effect; the text of the record puts the active cut at 80%
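Agonist activity was taken from a 110 s kinetic Ca2+ dye read on the FDSS after pinning compounds onto TRPML1-DL cells. The cells were seeded at 1,500/well with Tet inducer, incubated about 16 h, then dye-loaded at room temperature.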
Numbers without * were called inactive; ? = inconclusive; . = no result given; & = joins results of further samples; [ ] = remark or other dose.

SMILES	TRPML1 blocker	ClpP mod	PINK1 modulator	Sfp inh	Menin MLL FP FL	TRPV1 PAM	TRPML1 ag
COc1ccccc1N1CCN(c2cc(C)nc3nc(C)nn23)CC1	7	2.1%	4.5%	12%	4.6	-13	0.6
Cc1cc(C)nc(NC(=O)c2ccc(Cl)cc2Cl)n1	31	-1.3%	-0.1%	7%	3.7	-2	-0.2
O=C(Nc1nc(-c2ccc(Br)cc2)cs1)c1cccnc1	-10	.	0.7%	-4%	1.9	1	-0.8
COc1ccccc1OCC(=O)Nc1ccc(S(=O)(=O)N2CCCC2)cc1	4	.	-1.1%	8%	-2.5	3	-0.5
COc1ccc(OC)c(C2=Nn3c(nnc3-c3ccncc3)SC2)c1	26	.	0.4%	.	.	.	2.2
COc1cc2nc(SCC(=O)Nc3ccccc3C)n3nc(CCn4c(C)nc5ccccc54)nc3c2cc1OC	-5	-3.4%	1.1%	.	.	.	0.4
COc1ccccc1N1CCN(/N=C/c2c(C)nn(-c3ccccc3)c2C)CC1	0	1.1%	3.1%[38.3 µM]	-3%	11	-10	-0.4
O=C(CCn1cnc2ccccc2c1=O)Nc1ccc(S(=O)(=O)N2CCCCC2)cc1	23	-1.2%	1.5%	5%	-1.9	-18	1.0
COc1ccc(C(=S)N2CCC(C(N)=O)CC2)cc1Br	6	.	0.1%	40µM*	-1.1	-7	0.0
O=c1[nH]c(CSc2ncn[nH]2)nc2ccccc12	1	.	0.2%	-9%	4.1	3	0.7
COc1ccc(S(=O)(=O)N2CCCN(CC(=O)Nc3ccccc3F)CC2)cc1	2	.	0.3%	1%	-7.1	5	1.4
CCCn1c(C)cc(/C=C(\C#N)C(=O)OCC(=O)N(C)c2c(N)n(Cc3ccccc3)c(=O)[nH]c2=O)c1C	17	0.5%	0.8%	.	.	17	-0.4
Cc1cc2ncc(C(=O)Nc3ccccc3)c(C)n2n1	8	-2.2%	0.5%	16%	3.0	8	-0.3
Cc1nn2c(NCc3ccccn3)cc(C(C)C)nc2c1-c1ccccc1	47	3.7%	?	-10%	-2.1	-14	2.2
CCOC(=O)C(CCCOc1ccccc1C)C(=O)OCC	8	-1.2%	0.9%	?	0.7	1	1.7
Cc1nc2ccccc2cc1C(=O)O	21	-3.2%	-2.0%	-2%	1.5	-11	4.3
COCCn1c(Cc2ccccc2)nnc1SCC(=O)N(C)C	-9	0.5%	1.6%[38.3 µM]	9%	0.1	1	-0.3
CC1CCC(C(C)C)C(OC(=O)C2=C3c4ccccc4S(=O)(=O)N3CC2)C1 (configuration not stated)	8	?	9.9%	-1%	1.8	3	0.1
Cc1ccc(-c2nc3ccc(Br)cn3c2Cc2cccc(Cl)c2)cc1	.	-3.2%	?	.	.	.	-0.4
CCCOc1ccc(N2C(=O)CC(N3CCN(c4ccc([N+](=O)[O-])cc4)CC3)C2=O)cc1 (configuration not stated)	12	.	1.6%	8%	-9.3	-10	-0.7
COc1ccc(NC(=O)C2CC2)cc1S(=O)(=O)N1CCOCC1	1	0.3%	0.5%	.	.	-6	-0.3
Cc1c(NC(=O)CC(C)C)cccc1-c1nc2cccnc2s1	-4	-12%	2.5%	.	.	.	0.8
CCOC(=O)c1c(C)c(C(=O)NC2CCCCCC2)c(C)n1C	10	1.7%	0.1%[38.3 µM]	11%	0.0	14	0.2
COc1cccc(NC(=O)CSC2=Nc3ccccc3C3=NC(CCC(=O)NCc4ccco4)C(=O)N23)c1 (configuration not stated)	48	-2.7%	1.4%	.	.	.	0.6
CC(C)(NO)/C(=N/O)c1cccs1	2	-2.4%	0.9%	-2%	0.8	2	0.1

Single records (already shown). Screens in order: TRPML1 blocker | ClpP mod | PINK1 modulator | Sfp inh | Menin MLL FP FL | TRPV1 PAM | TRPML1 ag
CC1CCC(C(C)C)C(OC(=O)C2=C3c4ccccc4S(=O)(=O)N3CC2)C1 (configuration not stated) as listed: 8 | ? | 9.9% | -1% | 1.8 | 3 | 0.1
CCOC(=O)C(CCCOc1ccccc1C)C(=O)OCC as listed: 8 | -1.2% | 0.9% | ? | 0.7 | 1 | 1.7
COc1ccccc1N1CCN(/N=C/c2c(C)nn(-c3ccccc3)c2C)CC1 as listed: 0 | 1.1% | 3.1%[38.3 µM] | -3% | 11 | -10 | -0.4
O=c1[nH]c(CSc2ncn[nH]2)nc2ccccc12 as listed: 1 | . | 0.2% | -9% | 4.1 | 3 | 0.7

The list goes on.
SMILES	TRPML1 blocker	ClpP mod	PINK1 modulator	Sfp inh	Menin MLL FP FL	TRPV1 PAM	TRPML1 ag
CCC1(c2ccccc2)NC(=O)N(CC(=O)Nc2nnc(C3CC3)s2)C1=O (configuration not stated)	2	1.2%	1.6%	13%	0.4	-1	-0.4
COc1cc(/C=N/NC2=NS(=O)(=O)c3ccccc32)cc(OC)c1OC	7	0.0%	1.1%	9%	-16	?	-0.5
CC(=C/c1ccccc1)/C=N/NC(=O)c1cc(C)oc1C	-7	-2.1%	4.1%	7%	0.9	-3	-1.9
Cn1c(-c2ccc(Cl)nc2)nc2cc(Cl)ccc21	12	0.7%	0.1%	10%	-2.7	1	-0.4
CCOc1ccc(NC(=O)CC2SC(=O)N(c3ccccc3)C2=O)cc1 (configuration not stated)	-13	1.4%	-0.2%	10µM*	0.8	-5	-1.0
Cc1cccc(N(CC(=O)NC2CCCC2)C(=O)c2nsc(Cl)c2Cl)c1C	-19	.	2.4%	2%	-2.5	-8	2.0
COc1ccc(CN2CCN(CC(=O)Nc3ccccc3C(=O)NC3CC3)CC2)cc1F	-6	0.9%	-0.3%	.	.	5	-0.1
Cc1ccc(C(=O)N/C(=C/c2ccccc2F)C(=O)NCCCn2ccnc2)cc1	9	-0.8%	-0.8%	22%	.	16	0.5
Nc1nc(N)c2cc(Sc3cccc(C(F)(F)F)c3)ccc2n1	9	3.7%	-2.3%	.	.	.	0.9
COC(=O)C1Cc2ccccc2CN1S(=O)(=O)c1ccc(C)cc1 (configuration not stated)	0	0.4%	0.2%	8%	0.3	-18	-0.4
COc1ccc(-n2ccn(CC(=O)NCc3ccc(C)cc3)c(=O)c2=O)cc1OC	-12	-3.0%	2.0%	.	.	.	-0.2
S=c1[nH]c2cc(Cl)ccc2s1	-12	-0.5%	.	-6%	0.4	30	0.2
O=C(c1ccc2ccccc2c1)N1CCN(c2ccccn2)CC1	7	-1.6%	-1.9%	13%	1.1	4	2.1
Cc1ccc2nc(N(CCN(C)C)C(=O)C3CCN(S(=O)(=O)c4cccs4)CC3)sc2c1	-20	3.4%	-0.3%	.	.	.	0.4
O=C(COc1ccc2ccccc2c1)N1c2ccccc2Sc2ccccc21	22	-7.0%	0.2%[38.3 µM]	-2%	0.1	?	-0.1
COc1ccc(C(=O)NC(=S)NNC(=O)c2ccc3ccccc3n2)cc1	-13	.	-0.6%	13%	6.5	-6	1.0
COc1cccc(NC(=O)COC(=O)COc2cccc3c2OC(C)(C)C3)c1	10	1.7%	1.0%	-2%	.	-14	0.9
COc1ccc(-c2nn(-c3ccccc3)cc2C(=O)NCCCn2ccnc2)cc1	-17	-15%	-5.5%[38.3 µM]	20%	0.2	.	0.6
CCc1cccc(NC(=O)c2ccc(Cn3nc(C)cc3C)o2)c1	13	-2.1%	11%	26%	6.1	2	1.3
Cc1nc(C)c(-c2csc(NCc3ccco3)n2)s1	10	-15%	7.0%[38.3 µM]	-2%	3.7	5	0.5
COC(=O)c1ccccc1NC(=O)CCn1c(=O)oc2ccccc21	-15	-3.0%	0.1%	19%	.	-2	1.6
O=C(NCc1ccccc1)C(c1cccs1)N(C(=O)c1csnn1)C1CC1 (configuration not stated)	-3	-2.0%	-3.5%	0%	4.0	-8	-1.1
Cc1ccc2c(c1)cc(CN(Cc1ccco1)S(=O)(=O)c1ccccc1)c1nnnn12	3	-8.9%	4.2%	16%	3.7	5	0.6
Cc1ccc(NC(=O)CCC(=O)N2CCOc3ccccc32)c(Cl)c1	-14&-9	-0.8%&1.0%	0.0%&0.6%	6%	3.1	7	0.2&0.0
O=C(COC(=O)c1ccc(O)cc1)Nc1cc(S(=O)(=O)N2CCOCC2)ccc1Cl	-1	-3.3%	4.0%	.	.	?	2.8
(listing goes on)
SMILES	TRPML1 blocker	ClpP mod	PINK1 modulator	Sfp inh	Menin MLL FP FL	TRPV1 PAM	TRPML1 ag
COCCCNC(=O)c1c(F)c(F)c(F)c(F)c1F	6	-2.2%	0.5%	21%	3.8	-5	-0.9
CCOC(=O)c1nn(-c2ccccc2C)c(=O)c2c(N)scc12	-12	.	29%	3.2µM*	-3.7	6	1.0
CCN(CC)C(=O)c1ccc(NS(=O)(=O)c2ccc3[nH]c(=O)[nH]c3c2)cc1	-2	-0.4%	-0.1%	11%	.	4	1.0
CCN(CC)c1ccc(C(=O)OCC(=O)Nc2cccc(S(=O)(=O)NC3=NCCCCC3)c2)cc1	3	-15%	-0.5%	-12%	11	15	1.0
COc1ccc(CC(=O)Nc2ccc(OC)c(NC(=O)c3ccco3)c2)cc1	24	29%	-0.3%	-23%	0.8	21	0.7
CC1CC(=Cc2ccc([N+](=O)[O-])cc2)C(=O)O1 (configuration not stated)	1	-2.0%	-0.2%	.	.	.	0.0
CC(=O)N(CN1C(=O)C2CC=CCC2C1=O)c1cccc(Cl)c1 (configuration not stated)	9	-0.9%	-2.7%	7%	-13	1	1.6
CCOC(=O)CCP(=O)(O)C(O)(c1ccccc1)c1ccccc1	-6	0.0%	28%[38.3 µM]	9%	6.6	12	-0.4
O=C(CN1CCN(Cc2ccccc2)CC1)N/N=C/c1ccc(Br)s1	-13	?	2.7%	-13%	3.9	-1	-0.7
CCc1ccc([C@H]2C[C@H]3[C@H]4C(=O)N(c5ccccc5)C(=O)[C@H]4CC(=O)[C@@H]3CN2S(=O)(=O)c2ccc(C)cc2)cc1	.	-4.3%	0.8%	.	.	.	-0.2

Source: PubChem BioAssay
